Screens deposited in PubChem by several laboratories.
Vif A3G: HIV-1 Vif–A3G interaction blockers – biochemical, TR-FRET, GST-Vif 1-94, biotin-A3G peptide, dose response retest, primary screen (AID 1117319) | 0.57% of 260,000 active | TR-FRET GST-Vif / biotin-A3G peptide binding; higher % means a stronger effect; test concentration not given here; strong numbers were not always called active | inhibition, %, or IC50 in µM where a hit was titrated;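 active means above the screen mean plus three standard deviations and confirmed in dose response; inconclusive means results disagree or hit not tested in dose response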;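 further: Vif residues 1-94 fused to GST binding biotinylated APOBEC3G peptide 110-148; 0% = full assay without inhibitor and 100% = GST in place of GST-Vif; retest series ran down from 100 µM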
T cruzi inh: blocks replication of Trypanosoma cruzi | T. cruzi beta-gal in NIH3T3, luminescence, 90 h | AID 1885 | 1.4% of 300,000 active | inhibition, % (no concentration beside the values);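 active means mean inhibition across valid replicates above about 55%, limit read from the data; inconclusive means mean below that limit but half or more replicates reach it; inactive means mean below it, under half of replicates reach it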;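 further: signal also drops with host cell toxicity which is not excluded here; 0% = plate median of DMSO wells and 100% = zero luminescence signal; higher percent means less beta-gal luminescence so fewer parasites; stock transfer was 50 nL into about 50 µL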
MLL AF4-AF9 inh: MLL-AF4/AF9 protein interaction inhibition; AlphaScreen, biotin-AF4 peptide binding to FLAG-AF9; inhibition, % at 10 µM; 0.47% of 350,000 active; AID 651704;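 active means every replicate reaching a set inhibition limit, whatever the replicate mean, cut at about 25% in these data; inconclusive means mean inhibition reaches that limit but some replicates miss it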;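 further: 0% = plate neutral control median and 100% = total signal loss; the record names both 10 and 1 µM as test concentration; the first replicate is given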
Target sequence (P42568 whole entry, looked up): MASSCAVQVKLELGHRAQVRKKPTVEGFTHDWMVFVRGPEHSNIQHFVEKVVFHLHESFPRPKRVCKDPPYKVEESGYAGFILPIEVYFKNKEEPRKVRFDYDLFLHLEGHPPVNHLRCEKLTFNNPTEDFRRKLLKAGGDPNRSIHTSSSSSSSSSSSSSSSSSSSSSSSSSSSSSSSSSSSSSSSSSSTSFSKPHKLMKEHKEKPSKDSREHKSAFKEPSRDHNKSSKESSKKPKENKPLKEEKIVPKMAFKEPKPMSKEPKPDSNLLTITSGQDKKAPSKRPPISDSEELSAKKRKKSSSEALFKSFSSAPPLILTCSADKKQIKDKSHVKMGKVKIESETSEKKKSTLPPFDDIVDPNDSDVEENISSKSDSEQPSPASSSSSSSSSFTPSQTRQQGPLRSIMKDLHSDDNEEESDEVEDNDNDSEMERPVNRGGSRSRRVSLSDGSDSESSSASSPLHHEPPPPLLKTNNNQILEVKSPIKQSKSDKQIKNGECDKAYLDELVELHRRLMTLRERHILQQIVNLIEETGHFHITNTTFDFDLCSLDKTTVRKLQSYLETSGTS
RanGTP-Imp inh: inhibitors of RanGTP-importin-beta interaction, primary screen, biochemical, FRET, CFP-Ran, YFP-importin-beta, homogeneous; cell-free CFP-Ran/YFP-importin-beta FRET ratio; inhibition, % (test concentration not listed); 1.1% of 300,000 active;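 active means most replicates above 15%; inconclusive means exactly half above 15%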;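 further: 0% = DMSO wells and 100% = Ran loaded with GDP instead of GTP; wells of about 40 µL received 100 nL stock; the first replicate is given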
A1 inh: inhibitors of the anti-apoptotic protein A1, read as caspase activation; 0.066% of 330,000 active; caspase activation, % (test concentration not listed); AID 2462; MEF A1-2A-BIM cells, Caspase-Glo 3/7 luminescence, 3 h; percent of clofoctol response, vehicle zero;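 active means over half of replicate activation scores above 10%, or exactly half above 10 with the replicate mean above 10; inconclusive means replicate mean below 10 yet half the replicates above 10; inactive means over half of replicates below 10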;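 further: wells of about 30 µL received 50 nL stock; many hits fall short of the cut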
Beta apoptosis: beta cell apoptosis inhibition. INS-1E cytokine-induced death, ATP luminescence, 48 h; percent of positive-control rescue, neutral wells zero. protection from apoptosis, % (no concentration beside the values). 0.8% of 300,000 active. AID 435005;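 active means all replicates at 75% or more, or half of them and the mean; inconclusive means half reach 75% but not the mean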;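 further: 0% = cytokine-treated negative control wells and 100% = positive control rescue; higher means more ATP so stronger rescue from cytokine killing; wells of about 40 µL received 100 nL stock; the first replicate is given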
LANA-H2A inh: blocks KSHV LANA binding to histone H2A/H2B. cell-free LANA-H2A/H2B peptide, fluorescence polarization. inhibition, % (test concentration not listed). 0.6% of 320,000 active. AID 2629; in the data active means inhibition mostly above about 10%, no sharp cut-off; inactive means mostly below about 6.7%;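 further: stock transfer was 7.5 nL into about 10 µL; 0% = median of vehicle wells and 100% = median of positive control wells; one replicate is shown; the record names a cut of 25% in any replicate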
Calb FLC: affects C. albicans growth with fluconazole; C. albicans CaCi-2 (fluconazole-resistant clinical isolate) + fluconazole, Alamar Blue growth, 48 h; growth inhibition, % (concentration not given with the values); 0.57% of 300,000 active;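 active means most replicates above 75%; inconclusive means exactly half above 75%; inactive means most below 75%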;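 further: all wells also contain fluconazole at 8 µg/ml as a sub-toxic cotreatment; 0% = median of DMSO wells and 100% = median of geldanamycin control wells; wells of about 8 µL received 7.5 nL stock; the first replicate is given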
* hit, by the source's call; ? = inconclusive; . = no result given; + = active, no number; & = joins results of further samples.

compound,Vif A3G,T cruzi inh,MLL AF4-AF9 inh,RanGTP-Imp inh,A1 inh,Beta apoptosis,LANA-H2A inh,Calb FLC
CC(=O)Nc1ccc(CN2CCc3c([nH]c4ccccc34)C2c2ccccn2)cc1 (stereo not drawn),-2%,5,.,2.5,1.3,1,-1.5,-19
COc1ccc(/C=N/NC(=O)C2C(C=C(Cl)Cl)C2(C)C)c(OC)c1 (stereo not drawn),6%,-3,12,1.2,0.2,-7,-2.1,-5
COc1ccc(-c2cc3ccc(OCC(N)=O)cc3oc2=O)cc1OC,.,-26,3.4,3.3,0.2,-2,-1.0,4
Cc1ccc2nc(C)cc(OCC(=O)O)c2c1,-3%,-2,.,1.9,-0.5,-7,4.6,2
COc1ccc(-c2ccc(CNCCCN3CCOCC3)o2)cc1Cl,?,16,11,-5.4,2.1,0,-4.0,-23
CCC(C)(C)NC(=O)c1ccc(Br)o1,1%,-20,9.9,-2.2,0.6,-2,-5.2,2
CCn1cc(S(=O)(=O)CC(=O)Nc2cccc(C)c2)c2ccccc21,.,-4,0.1,3.8,1.4,-2,0.7,0
Cc1cc(C)n2nc(N)c(N=Nc3ccc4c(c3)OCO4)c2n1,-6%,18,.,0.9,-9.0,4,-3.6,-13
COc1ccccc1NC(=O)N1CCN(CCc2ccccc2)CC1,0%,-4,-4.6,5.7,-0.1,-9,0.4,-5
COc1ccc(C2Nc3ccccc3C(=O)N2NS(=O)(=O)c2ccc(C)cc2)cc1OC (stereo not drawn),.,4,1.2,0.5,-0.4,4,-0.7,17
CCOc1ccc(C(=O)Nc2c3c(nn2-c2ccc(F)cc2)CS(=O)C3)cc1 (stereo not drawn),1%,-6,.,6.0,0.7,-5,0.0,3
COc1cccc(CN2CC(C(=O)N(C)Cc3nc(C)cs3)CCC2=O)c1 (stereo not drawn),.,-8,-4.3,-5.5,.,.,.,-16
CCCn1c(NCc2cc(OC)ccc2OC)nc2ccccc21,2%,-4,.,-0.9,-0.2,.,2.2,-2
CN1CCN(S(=O)(=O)c2ccc(Cc3ccc(S(=O)(=O)N4CCN(C)CC4)cc3)cc2)CC1,-5%,1,.,1.5,-0.2,-8,-4.0,-5
O=C(NC1(C(F)(F)F)OCCO1)c1ccc(F)cc1,-1%,0,-1.9,5.8,-2.1,-3,0.7,2
CN1C(=O)C(O)(CC(=O)c2ccccc2O)c2cc(Br)ccc21 (stereo not drawn),30%,-15,-3.5,-0.4,1.5,.,47*,-32
CCN1C(C(=O)Nc2cc(C)on2)=C(O)c2ccccc2S1(=O)=O,-10%,-7,-2.2,-0.6,0.0,2,-9.4,1
OCC(O)C(O)C(O)C(O)c1nc2ccccc2[nH]1 (stereo not drawn),-7%,13,-0.3,-0.3,1.0,-1,-2.9,-5
CCCNC(=O)C1CCCN(S(=O)(=O)c2ccc3c(c2)CC(C)N3C(=O)C2CC2)C1 (stereo not drawn),.,10,-7.7,3.3,-0.6,-2,-2.7,-3
CCOC(=O)c1cc(-c2ccccc2)sc1NC(=O)CSc1nnc(N)s1,-24%,2,-0.4,5.1,1.1,-6,+,7
C=C(C)Cn1c(=O)c2c(nc3n2CC(C)CN3Cc2ccccc2)n(C)c1=O (stereo not drawn),.,21,3.8,-1.5,-1.3,-1,-2.6,-1
CC(=O)N1c2ccc(S(=O)(=O)N(C)CC(=O)NCc3ccc(C)cc3)cc2CC1C (stereo not drawn),.,14,1.7,2.2,0.7,-1,6.4,16
COc1cc2[nH]c(C(=O)NCCc3ccccc3)cc2c(OC)c1OC,-1%,-1,0.1,-1.2,0.6,4,5.3,20
CC1C(=O)N2CCCc3cc(NC(=O)C(=O)NCCN4CCOCC4)cc1c32 (stereo not drawn),8%,-10,-6.7,1.4,-0.6,-6,-5.1,-2
COC(=O)CCCC1=CC2=C(c3ccccc3)C(=O)C(C)(OC(=O)C3CCCC3)C(=O)C2=CN1CCN1CCOCC1 (stereo not drawn),.,-10,-2.1,0.0,-2.1,0,0.3,10
Cc1cc(=O)oc(C)c1C(=O)Nc1ccc(N(C)C)cc1,3%,-12,-1.5,-0.8,-0.1,.,-1.1,3
COc1ccc(CCC(=O)Nc2cc(Cl)ccc2N2CCN(C)CC2)cc1,-5%,23,.,3.2,0.5,-6,-1.2,28
NS(=O)(=O)c1ccc2nc(NC(=O)c3ccc4c(c3)OCCO4)sc2c1,-19%,-1,-0.5,.,-0.8,-8,0.9,.
CCOC(=O)N1CCN(C(=O)CSc2nnc(-c3cc(OC)cc(OC)c3)o2)CC1,-2%&1%,-1,.,-1.0,0.1,4,0.1,0
O=C(CC(c1ccco1)S(=O)(=O)c1ccccc1)c1ccc(F)cc1 (stereo not drawn),11%,50,.,-5.6,0.3,1,-5.1,4
O=C(Nc1ccc(NC(=O)c2ccco2)c(Cl)c1)c1ccc2c(c1)OCCO2,-4%,3,-0.3,-0.2,-3.4,-3,2.2,-2
CC(=O)CC(=O)Nc1cccc2c1CCCC2,-8%,1,.,0.0,-1.0,0,-12,4
C#CCN1C(=O)S/C(=C\c2cc3c(cc2OC)OCO3)C1=O,.,-4,1.9,-87,0.0,8,-4.8,16
CCSc1nc2ccccc2c(=O)n1Cc1ccc(F)cc1,5%,1,-1.5,2.2,0.2,0,1.1,5
CCOc1ccc(NC(=O)CN(C)C(=O)c2ccc(C3SCCS3)cc2)cc1OCC,.,25,-1.6,-4.2,0.0,3,1.2,.
COc1ccc(C(=O)NCC(=O)N/N=C(\C)c2ccco2)cc1OC,-15%,-3,4.2,6.0,0.3,1,2.1,-1
O=C(CN1CCN(S(=O)(=O)c2ccc(F)cc2)CC1)NC1CCCC1,.,5,1.3,-3.0,0.8,-14,2.1,-2
O=C(/C=C/c1ccco1)N1CCC(Cc2ccccc2)CC1,.,1,-0.2,-8.2,-0.1,-20,11,-6
Cc1c(C(C)NC(=O)c2ccc3nc(Cc4ccccc4F)oc3c2)cnn1C (stereo not drawn),.,12,2.3,-2.5,-1.1,0,-4.0,-4
Cc1ccc(/C=N/NC(=O)c2c(C)nc3ccc(Br)cn23)cc1,8%,-10,-2.1,-9.6,-0.5,-6,-6.6,-1
Cc1cc(C)c(S(=O)(=O)NCC(c2ccco2)N2CCc3ccccc3C2)c(C)c1 (stereo not drawn),-2%,37,-24,3.9,0.5,-4,-1.1,-3
O=C1CSC(=S)N1c1ccc(F)c(Cl)c1,0%,-7,-1.7,-2.1,-0.9,-8,-6.2,6
CS(=O)(=O)Nc1cccc(-c2cn3ccccc3n2)c1,11%,.,0.7,?,0.6,5,1.6,-6
CC(=O)NCc1ccc(C(=O)O)cc1,13%,-9,3.3,1.0,0.8,-7,2.4,-1
CCN(CCO)c1ccc(NC(=S)Nc2cccc(S(=O)(=O)N(C)C)c2)cc1,?,-5,6.8,-1.7,-0.1,-8,2.8,-16
Cc1ccc(C(=O)NCCCn2ccnc2)o1,-2%,-11,.,0.0,0.1,-6,1.4,.
Cc1cccc(N2C(=O)CC(SC(=Nc3ccccc3)Nc3ccccc3)C2=O)c1 (stereo not drawn),-6%,21,.,5.8,0.4,-3,3.1,21
COc1ccc(NC(=O)CCc2nnc3ccc(N4CCC5(CC4)OCCO5)nn23)cc1,.,-4,4.8,-1.3,0.5,1,-0.7,-23
COc1ccccc1-c1nnc(SCC(=O)O)n1-c1ccccc1,-7%,-9,-0.1,-0.2,0.6,-1,-2.0,-4
CSCC(=O)NC1CCCN(C2Cc3ccccc3C2)C1 (stereo not drawn),.,3,-19,-3.7,-0.2,-3,4.4,4
Cc1ccc(C(=O)N[C@H](C(=O)OCc2cc(=O)oc3cc(C)ccc23)C(C)C)cc1,-4%,-11,.,3.0,0.1,5,6.0,0
CCOC(=O)CSc1nc2c(c(-c3ccc(C)o3)c1C#N)CCCC2,25%,6,.,-1.2,1.3,5,-0.8,24
Cc1ccc(C)c(N2CCN(C(=O)CCC(=O)Nc3nnc(C(F)(F)F)s3)CC2)c1,4%,8,-12,1.1,-1.2,-4,4.1,30
CCOCC(=O)Nc1cc(C)on1,1%,-8,-1.4,1.2,2.2,-3,-0.6,-6
Cc1cc(C)c(S(=O)(=O)c2ccccc2)c(OC(=O)c2c(F)cccc2Cl)n1,9%,3,.,4.0,1.6,-7,1.4,-4
O=C(CCCOc1ccccc1)NC1CCCc2ccccc21 (stereo not drawn),-4%,11,.,4.2,1.2,5,3.1,22
CC(=O)Nc1c(Cl)cc([N+](=O)[O-])c2ccccc12,1%,-10,3.4,1.9,0.1,-6,3.8,-3
CN(C)c1ccnc(Nc2ccc(O)cc2)c1C#N,20%,-8,-1.5,2.0,-0.5,-3,4.6,-7
Cc1cc(C(=O)Nc2cccc(-c3ccc(N4CCOCC4)nn3)c2)ccc1[N+](=O)[O-],1%,5,-12,-1.3,-6.1,24,-2.0,20
Cc1cc(C(=O)NNC(=S)NCC(C)C)no1,7%,-23,.,-2.9,0.2,4,-1.4,33

The list continues:
compound,Vif A3G,T cruzi inh,MLL AF4-AF9 inh,RanGTP-Imp inh,A1 inh,Beta apoptosis,LANA-H2A inh,Calb FLC
Cc1cccc(CNC(=O)c2ccc(NC(=O)C3=CSCCO3)cc2)c1,-1%,5,.,0.7,-0.2,.,1.0,-1
Cc1cccc(N2CCCn3c2nc2c3c(=O)n(CCN3CCOCC3)c(=O)n2C)c1,-4%,-9,.,0.6,-0.1,7,-0.5,?
COc1ccccc1C(=O)NCCCCNC(=O)c1ccccc1OC,.,6,-0.1,5.6,0.8,-3,0.7,-5
CCC(=O)c1ccc(OCCN2CCOCC2)cc1,13%,2,.,1.6,-0.1,.,-2.1,1
CC1CN(c2nc(N(C)c3ccccc3)nc(N)c2[N+](=O)[O-])CC(C)O1 (stereo not drawn),.,18,7.0,-1.2,-0.3,-2,4.0,3
CCn1c(N)c(C(=O)NCc2ccco2)sc1=S,3%,-9,.,-3.7,0.4,2,-2.4,-3
Cc1ccccc1NC(=O)Cc1nc(COC(=O)c2ccc(Cl)c(S(N)(=O)=O)c2)cs1,-4%,14,8.1,-1.6,0.3,-7,-1.8,-2
O=S(=O)(Nc1ccccc1Cl)c1cccc2nsnc12,.,-7,0.9,-1.4,0.2,-3,0.2,-9
O=C(COC(=O)CCC1CCCC1)Nc1ccc(Cl)cc1F,.,2,.,-3.0,-0.1,-2,9.5,-13
CCC(C)N1CC(O)=C(c2nc3ccccc3[nH]2)C1=N (stereo not drawn),18%,-9,-5.6,-1.4,0.1,-3,1.5,-6
COc1ccc(/C=N/NC(=O)c2cc(-c3cccnc3)nc3ccccc23)c(OC)c1,13%,-13,-1.3,1.2,-0.4,0,-0.2,?
Cc1cc(N(C)C(=O)c2ccc3c(c2)S(=O)(=O)c2cc(Cl)ccc2C3=O)c(C(F)(F)F)o1,.,.,-0.2,.,-0.8,-6,-5.4,.
O=[N+]([O-])c1cc2c(c(CSc3nnc(Nc4ccccc4)s3)c1)OCOC2,8%,12,.,-6.6,-0.8,8,3.3,3
COc1ccc(NC(=O)O/N=C/c2ccncc2)cc1,-5%,-7,-1.5,-1.2,-4.1,1,-4.5,?
O=C(CN1CCN(Cc2ccccc2)CC1)NC(=O)NC1CCCCC1,-4%,15,.,-3.7,1.2,3,2.4,-2
